# PABP polyA inh: blocks human PABP binding to poly(A) RNA; P11940; fluorescence polarization; inhibition, % at 35 µM; 290,000 tested, 1% active; AID 2014;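 active = 50% or more with normal probe brightness, or confirmed in later tests; inconclusive = above 50% with abnormal brightness, or retests that disagree; inactive = below 50% or failed in later tests; about a fifth of its hits are not listed in these tables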;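 note: calls also rest on retests at 20 µM and on dose response follow-up; controls were probe without protein and protein plus probe with vehicle; some compounds called inactive have numbers as strong as hits; many hits fall short of the cut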
# Target sequence (P11940 whole entry, looked up): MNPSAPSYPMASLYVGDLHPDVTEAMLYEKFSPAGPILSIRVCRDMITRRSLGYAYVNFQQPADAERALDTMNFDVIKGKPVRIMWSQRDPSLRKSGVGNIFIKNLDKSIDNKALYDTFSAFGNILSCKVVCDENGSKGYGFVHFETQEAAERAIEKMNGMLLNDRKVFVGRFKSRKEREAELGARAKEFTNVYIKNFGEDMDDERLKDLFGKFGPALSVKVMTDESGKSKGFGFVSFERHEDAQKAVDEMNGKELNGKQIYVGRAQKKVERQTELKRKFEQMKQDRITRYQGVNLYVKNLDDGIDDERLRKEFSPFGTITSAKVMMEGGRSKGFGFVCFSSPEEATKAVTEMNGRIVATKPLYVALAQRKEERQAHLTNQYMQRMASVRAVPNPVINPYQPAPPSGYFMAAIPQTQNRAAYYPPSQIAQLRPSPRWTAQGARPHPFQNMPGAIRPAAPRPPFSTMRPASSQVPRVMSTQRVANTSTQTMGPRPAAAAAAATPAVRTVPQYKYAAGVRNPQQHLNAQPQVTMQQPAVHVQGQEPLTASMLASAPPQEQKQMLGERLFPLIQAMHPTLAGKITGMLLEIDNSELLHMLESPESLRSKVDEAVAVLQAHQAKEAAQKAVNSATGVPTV
# CSC inhib: cancer stem cell inhibition; inhibition, % at 7.5 µM; 300,000 tested, 1.1% active; cancer stem cell-like cells viability, luminescence; AID 2717;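 active = mean at 75% or more and at least half the replicates too; inconclusive = mean and replicates disagree; tested in HMLE shEcad cells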;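 note: 0% = median of negative and 100% = median of positive control wells; the first replicate is given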
# MT1-MMP act inh: blocks activation of human MT1-MMP; HT1080 RFP-PRO-GFP cells, GFP/RFP ratio fluorescence, overnight; percent of plate control window, DMSO zero; AID 651647; GFP/RFP ratio change, % at 20 µM; P50281; 360,000 tested, 0.061% active;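 active = GFP/RFP ratio change of at least 30% with cell ATP level not reduced by more than half and red fluorescence within 50% of control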; note: strong numbers were not always called active
#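 Assay system: HT1080 cells carrying an RFP-PRO-GFP reporter | Dosing: Single dose of 20 µM compound, 1% DMSO final | Incubation: Cells overnight before dosing, compound overnight, 37 °C, 5% CO2 | Evaluation: GFP/RFP fluorescence ratio | Control set: DMSO and RFP-L50D-GFP cell wells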
# UUG fidelity: modulators of start codon recognition fidelity in yeast | S. cerevisiae UUG-firefly luciferase reporter, luminescence/redox ratio | activity score, % at 18.7 µM | 350,000 tested, 0.13% active;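 active = replicate mean at a twofold rise or more, about +100% in these data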;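 note: firefly luciferase made from a UUG start codon reports start codon fidelity; reporter light over untreated wells divided by growth signal over untreated wells; some hits fall short of that in this replicate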
# HIV Env fusion: blocks HIV Env-driven cell-cell fusion. inhibition, % at 12.3 µM. HeLa-JRFL Env/CEM21 cell fusion, luciferase. 360,000 tested, 1.1% active;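 active = mean replicate inhibition score of at least 50 and every replicate individually at or above 50; inconclusive = only one of the two criteria met; inactive = mean below 50 and not all replicates reaching 50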;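 note: 0% = plate neutral controls and 100% = maraviroc near 300 nM; one replicate is shown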
# Rce1 inhib: inhibitors of yeast Ras-converting enzyme. Q03530. yeast membranes, quenched prenylated peptide cleavage fluorescence. calls only. 290,000 tested, 0.27% active. AID 2563;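 active = fall in fluorescence gain of 50% or more versus controls, with final raw signal at or below 3038400; inconclusive = same 50% fall but final raw signal above 3038400; inactive = fall in fluorescence gain under 50%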;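 note: plate controls were neutral control wells for no effect and wells lacking membranes for full effect; tested at 10 µM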
# Target sequence (Q03530 whole entry, looked up): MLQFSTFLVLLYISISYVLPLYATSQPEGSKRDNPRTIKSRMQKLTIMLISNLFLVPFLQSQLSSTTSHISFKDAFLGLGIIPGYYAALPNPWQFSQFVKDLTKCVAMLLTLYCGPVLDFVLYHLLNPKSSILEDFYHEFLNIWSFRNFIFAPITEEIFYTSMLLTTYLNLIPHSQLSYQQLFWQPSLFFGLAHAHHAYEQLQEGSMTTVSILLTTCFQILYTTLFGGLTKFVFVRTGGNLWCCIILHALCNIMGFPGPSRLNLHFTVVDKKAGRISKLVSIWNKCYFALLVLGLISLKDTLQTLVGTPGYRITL
# eIF4H inh: inhibitors of RNA binding by human eIF4H. 290,000 tested, 0.94% active. AID 2012. inhibition, % at 35 µM. eIF4H fluorescence polarization binding assay. Q15056;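 active = 50% or more with normal probe brightness, or confirmed in later tests; inconclusive = above 50% with abnormal brightness, or retests that disagree; inactive = below 50% or failed in later tests; about a fifth of its hits are not listed in these tables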;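 note: calls also rest on retests at 20 µM and on dose response follow-up; 0% = protein and probe with vehicle and 100% = probe without protein; strong numbers were not always called active; many hits fall short of the cut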
# eIF4H inh retest: further read-out of eIF4H inh, marked with its call; inhibition, %; compound at 20 µM; confirmation average;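 mean of two retest wells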
# PABP polyA inh retest: second read-out of PABP polyA inh, no call of its own (marks repeat the call); inhibition, %; compound at 20 µM; confirmation repeats;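 mean of two retest wells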
# MT1-MMP act inh RFP: further read-out of MT1-MMP act inh, marked with its call; RFP signal change, %; measured here: RFP expression control read;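 0 = vehicle wells; hits needed this value within 50% of zero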
# Active calls of the source: *; i = inactive; ? = inconclusive; nt = not tested or not shown; & = joins results of further samples; [ ] = dose if it differs, or a comment.
SMILES,PABP polyA inh,CSC inhib,MT1-MMP act inh,MT1-MMP act inh RFP,UUG fidelity,HIV Env fusion,Rce1 inhib,eIF4H inh,others
CCCc1cc(=O)[nH]c(SCC(=O)Nc2cc(S(=O)(=O)N(CC)c3ccccc3)ccc2Cl)n1,nt,42,10,1,-8,nt,nt,nt,
O=C(CCS(=O)(=O)c1ccc(Br)cc1)NC1CCCC1,18,9,0,6,-26,nt,i,74,eIF4H inh retest=1;PABP polyA inh retest=1
CCOCCCN(CCC#N)S(=O)(=O)c1ccc(S(=O)(=O)N2CCCC2)cc1,-1,nt,1,-4,-6,10,i,3,
COc1ccccc1NC(=O)NCCCl,-2,-16,2,-1,-16,-4,i,-8,
Cc1ccnc(SCC(=O)O)n1,-12,-14,8,4,2,-48,i,0,
Cc1n[nH]c(C)c1CCC(=O)N/N=C/c1c[nH]c2ccccc12,2,-7,-5,1,-8,3,i,-10,
Nc1nc(NC(=O)Cc2ccccc2)nn1-c1ccccc1,-8,nt,-2,-1,-11,nt,i,-4,
O=C(Nc1ccc(F)c(Cl)c1)c1ccc2nc([C@@H]3O[C@H](CO)[C@H](O)[C@H](O)[C@H]3O)[nH]c2c1,nt,nt,2,5,-10,10,nt,nt,
O=C(O)c1cccc(NC(=O)c2ccc3c(c2)C(=O)N(CC2CCCO2)C3=O)c1 (stereo unspecified),-2,-5,-2,0,-46,-39,i,1,
COc1ccc(/C=C2\CCc3ccccc3C2=O)cc1Cn1cccn1,0,nt,-4,-11,-22,65*,i,-1,
CC(C)NC(=O)Nc1ccc2c(c1)C(=O)N([C@H](C)CO)C[C@H](C)[C@@H](CN(C)C(=O)Nc1ccc(C(F)(F)F)cc1)O2,nt,0,4,8,6&9,19[16.7 µM],nt,nt,
Cc1cc(C)c(C(=O)CN2C(=O)NC3(CCCCCC3)C2=O)cc1C,-11,3,-8,-6,nt,-12,i,-4,
CSCCC(NC(=O)c1ccc([N+](=O)[O-])cc1Cl)C(=O)OCC(=O)N1CCN(C(C)=O)CC1 (stereo unspecified),nt,-14,1,4,-7,29,i,nt,
Cc1ccc(C(=O)Nc2ccc(Cl)cn2)cc1,-3,38,2,-4,-48,nt,i,0,
O=C(Nc1ccc(Cl)cc1F)c1cc(S(=O)(=O)N2CCCCC2)ccc1F,-9,-7,0,2,-18,9,i,17,
CCOC(=O)N1CCN(C(=O)c2ccc3c(=O)n(CCc4ccc(OC)c(OC)c4)c(=O)[nH]c3c2)CC1,-3,-12,2,-4,-7,-4,i,0,
CCOC(=O)Cn1c(=O)oc2ccc(C)cc21,3,-9,1,3,nt,-19,i,-12,
Cn1c(N)c(C#N)c2c(c1=S)CSC(C)(C)C2,?,-5,-11,6,7,-45,i,?,
Cc1ccccc1C1c2[nH]c3ccccc3c2C[C@H]2C(=O)N(c3ccccc3C(=O)NCCCN3CCOCC3)C(=O)N12 (stereo partly specified),1,-4,-8,-5,-7,nt,i,-1,
CCOC(=O)[C@@H]1[C@H]2COc3ccc(Br)cc3[C@@H]2N2C(=O)N(c3ccc(OC)cc3)C(=O)[C@@]12C,nt,-20,4,2,-19,53,nt,nt,
CN1C(=O)N(CC(=O)Nc2sccc2C(N)=O)C(=O)C12CCCCC2,nt,9,-3,0,-4,nt,nt,nt,
CC(NC(=O)c1ccccc1Br)c1nnc(SCC(=O)NC2CCCCC2)n1C (stereo unspecified),1,-10,-4,-1,-8,-10,i,-8,
CCOC(=O)[C@@H]1[C@H]2COc3cc(OC)ccc3[C@@H]2N2C(=O)N(c3ccc(Cl)cc3)C(=O)[C@]12C,nt,-1,1,-9,-14,-31,i,nt,
NS(=O)(=O)c1ccc(CCNc2nc(CN3CCCCC3)nc3sc4c(c23)CCC4)cc1,-2,9,2,-4,-28,nt,i,-1,
O=C(COc1ccc(S(=O)(=O)NC2CCCCC2)cc1Cl)NCc1ccc2c(c1)OCO2,3,3,25,-15,-8,nt,i,11,

# Later entries:
SMILES,PABP polyA inh,CSC inhib,MT1-MMP act inh,MT1-MMP act inh RFP,UUG fidelity,HIV Env fusion,Rce1 inhib,eIF4H inh,others
COc1ccc(N(C(=O)Cc2cccs2)C(C(=O)NC2CCCCC2)c2cccn2C)cc1OC (stereo unspecified),-2,-22,-2,0,10,nt,i,-2,
O=C(NCCO)c1nc(NCCO)c2ccccc2n1,8,1,3,-1,-3,-81,i,-2,
CC1Cc2ccccc2N1C(=O)C12CCC(C)(C(=O)C1)C2(C)C (stereo unspecified),1,-13,-2,-4,-11,-21,i,-6,
CCCCSc1nnc(-c2c[nH]c3ccccc23)n1C,0,0,7,-10,-12,-25,i,0,
Cc1ccc(NC(=O)COC(=O)COc2cccc3c2OC(C)(C)C3)cc1S(=O)(=O)N1CCOCC1,nt,-12,-1,4,6,0,i,nt,
CCCCN(CC)CCCNC(=O)CS(=O)(=O)Cc1nc(-c2cccc(OC)c2)oc1C,13,-7,2,-1,-9,-33,i,8,
COc1cccc(OCC(O)CN2CCc3ccccc3C2)c1 (stereo unspecified),7,2,3,1,-12,10,i,-1,
Cc1cc(C(=O)Cn2cnc3ccc(Cl)cc3c2=O)c(C)n1C1CC1,nt,nt,1,3,-12,-7,nt,nt,
O=C1c2cccc([N+](=O)[O-])c2C(=O)N1c1ccccc1,-3,15,2,5,-24,9,i,2,
CC1=C(C(=O)N(C(C)C)C(C)C)CC(CC(=O)NC2CCCCC2)C(=O)N1Cc1ccc(F)cc1 (stereo unspecified),nt,nt,0,2,-7,-13,nt,nt,
CCc1nc2c(OCCOc3ccc(F)cc3)cccn2c1N(C)C(=O)c1ccco1,nt,nt,0,2,-15,-6,nt,nt,
Cc1cccnc1NC(=O)c1sc2ccccc2c1Cl,-8,-2,0,0,-13,-67,i,0,
O=C(NNS(=O)(=O)c1ccc(F)cc1)c1cc(Cl)ccc1O,10,4,2,0,7,10,i,2,
Cc1ccc(S(=O)(=O)NC(=O)c2cc(C)n(-c3ccc(N(C)C)cc3)c2C)cc1,-5,0,-1,1,-14,7,i,-9,
O=C(O)C1=C[C@H](c2coc3ccccc3c2=O)C[C@H](OCCCCO)O1,6,-1,1,4,-10&-7,7[16.7 µM],i,-8,
CCn1c(COc2cccc(OC)c2)nnc1SCC(=O)NC1CCCC1,-8,nt,1,5,3,-4,i,0,
COC(=O)Cn1c2nc3ccccc3nc2c2cccc(C)c21,6,-7,-4,-4,-12,-2,i,7,
COc1ccc(CCNC(=O)CCc2cn(C)c3ccccc23)c(OC)c1OC,-8,-4,4,-1,-15,-245,i,-6,
Cc1ccc(C)c(OCCC(=O)OCC(=O)Nc2ccc(Cl)cn2)c1,nt,-20,-3,2,-22,1,i,nt,
CCCS(=O)(=O)c1csc(C(=O)OC)c1N,7,-8,0,6,-56,-4,i,3,
CCN(CC)Cc1nc2c(c(=O)[nH]1)C1(CCCC1)Cc1ccccc1-2,-6,10,9,3,-15,-25,i,-7,
C(=C1c2ccccc2-c2ccccc21)c1ccccn1,nt,nt,2,-4,-20,-42,nt,nt,
C=CCNc1nc(Nc2ccc([N+](=O)[O-])cc2)nc(OCC)n1,-3,-7,3,2,nt,6,i,2,
CCOC(=O)C1=C(c2ccccc2)NC(=S)NC1c1ccc(Cl)cc1 (stereo unspecified),1,nt,-2,0,nt,0,i,10,
CCOC(CNc1c([N+](=O)[O-])c(=O)n(C)c(=O)n1C)OCC,-11,nt,-2,-1,nt,nt,i,-7,

# Next section:
SMILES,PABP polyA inh,CSC inhib,MT1-MMP act inh,MT1-MMP act inh RFP,UUG fidelity,HIV Env fusion,Rce1 inhib,eIF4H inh,others
COc1cccc(/C=C2\SC(=S)N(CCCC(=O)Nc3cc(C)on3)C2=O)c1,18*,4,-9,2,-5,nt,i,?,PABP polyA inh retest=128*
Cn1c(C(=O)NCCCN2CCN(c3ccc(F)cc3)CC2)cc2c(=O)n(C)c3ccccc3c21,nt,nt,5,1,-23,-30,nt,nt,
COc1ccc(C(=O)N=C2SC3CS(=O)(=O)CC3N2Cc2ccc(OC)c(OC)c2)cc1 (stereo unspecified),11,7,1,1,-9,2,i,2,
O=C(Nc1nc2ccccc2[nH]1)C1CCC1,9,17,-4,-5,-20,-112,i,4,
CCOC(=O)c1c(-c2ncc(C(F)(F)F)cc2Cl)noc1C,-9,-8,1,2,nt,-8,i,1,
C[C@@H]1CCCCO[C@H](CN(C)C(=O)Cc2ccccc2)[C@H](C)CN([C@@H](C)CO)C(=O)c2cc(NC(=O)Nc3ccc(F)cc3)ccc2O1,nt,nt,6,-5,-15&2,-220,nt,nt,
CCOc1ccc(N2C(=O)C(c3ccccc3)=C(c3nc4ccccc4s3)C2NC(C)=O)cc1 (stereo unspecified),-14,-4,-3,-6,-23,-11,i,-2,
CCCN1CCC(C(=O)NC(c2ccc(F)cc2)c2ncccc2C)CC1 (stereo unspecified),nt,nt,1,4,-12,-48,nt,nt,
CC1=Nc2cc([N+](=O)[O-])ccc2NC(C)(C)C1,2,-8,9,1,nt,15,i,-6,
COc1cc2c(cc1OC)CN(C(=O)CN1CCN(S(=O)(=O)c3ccccc3)CC1)CC2,12,-10,0,-2,-4,10,i,-5,
COc1c(S(=O)(=O)N2CCCCC2)ccc2c(S(=O)(=O)N3CCCCC3)cccc12,nt,nt,-2,-21,-13,3,nt,nt,
O=C(NCCN1CCN(C(=O)c2ccc(F)cc2)CC1)C(=O)NCc1ccccc1,2,-44,0,4,-16,4,i,1,
CCNC(=S)Nc1ccc(OCC)cc1,-2,-7,1,1,nt,10,i,-5,
COc1cccc(-n2nnc3c(=O)n(Cc4ccc(C)cc4)cnc32)c1,1,-10,1,-1,-7,-12,i,-2,
COc1ccc(NC(=O)NCc2cccnc2)cc1,-15,1,1,3,-7,10,i,-8,
CCCc1nc2c(nnn2Cc2ccccc2F)c(=O)[nH]1,0,-3,1,4,-17,nt,i,-2,
CC(=O)c1c(C)n(-c2ccc(Cl)cc2)c2ccc(O)cc12,-3,-11,-1,-2,nt,35,i,6,
COc1cc(NC(=O)C(=O)NCCN(C)C)c(OC)cc1Cl,-4,-7,-2,2,nt,-3,i,-4,
CCn1cc(C(=O)NCc2ccc3c(c2)OCO3)c(=O)c2cc(F)c(N3CCN(C)CC3)cc21,2,17,3,-2,nt,nt,i,-2,
O=C(CSCc1ccc(Cl)cc1)N1CCN(Cc2ccc3c(c2)OCO3)CC1,-4,11,-3,-10,-15,nt,i,-8,
CCn1nnc(-c2ccccc2NC(=O)c2cccc(-n3cnnn3)c2)n1,6,-3,6,1,-24,nt,i,-6,
O=C(Cc1ccccn1)c1ccc(O)cc1O,-2,-6,-3,4,-18,-1,i,-2,
CCOC(=O)CCNC(C(=O)OCC)c1ccccc1 (stereo unspecified),12,-14,4,4,-9,nt,i,7,
CC(C)n1c(SC2C(=O)CC(C)(C)CC2=O)nc2c1c(=O)n(C)c(=O)n2C,4,11,-1,8,-6,-14,i,-13,
COc1ccc(N(CC(=O)N2CCN(c3ccc(F)cc3)CC2)S(=O)(=O)c2c(C)noc2C)cc1,-2,-7,0,0,-6,8,i,-4,
CCCC1COC(Cn2cncn2)(c2ccc(C)cc2)O1 (stereo unspecified),-1,3,0,1,-31,nt,i,-4,

# Rows are unselected; any-hit rate near 2.9%.
